Bioassay records: PubChem BioAssay, National Center for Advancing Translational Sciences (NCATS)
PINK1 modulator: A Quantitative High throughput Screen to Identify Chemical Modulators of PINK1 Expression. PINK1 immunofluorescence, high-content cytometry, 24 h. 410,000 tested, 0.2% active. Potency, µM (highest dose often 76.6 µM), for the others: top-dose activation (PINK1 increase), actives largely listed as activators; active = well fitted activation curve with a large enough effect; inconclusive = small, poorly fitted or top-dose-only effect; inactive = flat fitted curve, though single readings scatter; cell line not stated here;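 note: potency is the fitted concentration of half-maximal effect; % of control where 0% means no effect; nearly all actives have a fitted effect of over 65% in size; a mitochondrial uncoupler was the plate control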
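Fluorescence from anti-PINK1 antibody, together with nuclear and cell stains, was scanned on a laser-scanning cytometer. Before staining, stable-line cells were incubated 24 hours with compounds at 5 concentrations; primary antibody 12 h at 10 degrees C.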
D2 potentiator: Beta-Arrestin HTS for Positive Allosteric Modulators of the Human D2 Dopamine Receptor: Potentiators | DiscoveRx D2 beta-arrestin cells, luminescence, 90 min; 100% = 57 uM dopamine signal | potentiation, % (test concentration not listed) | 360,000 tested, 0.23% active | AID 624464, 2012; active = potentiation of 50% or more; inconclusive = 30% to 50%; inactive = 30% or less;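 note: compound concentration not given in the record; tested on top of an EC20 dose of dopamine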
Target sequence (P14416 whole entry, looked up): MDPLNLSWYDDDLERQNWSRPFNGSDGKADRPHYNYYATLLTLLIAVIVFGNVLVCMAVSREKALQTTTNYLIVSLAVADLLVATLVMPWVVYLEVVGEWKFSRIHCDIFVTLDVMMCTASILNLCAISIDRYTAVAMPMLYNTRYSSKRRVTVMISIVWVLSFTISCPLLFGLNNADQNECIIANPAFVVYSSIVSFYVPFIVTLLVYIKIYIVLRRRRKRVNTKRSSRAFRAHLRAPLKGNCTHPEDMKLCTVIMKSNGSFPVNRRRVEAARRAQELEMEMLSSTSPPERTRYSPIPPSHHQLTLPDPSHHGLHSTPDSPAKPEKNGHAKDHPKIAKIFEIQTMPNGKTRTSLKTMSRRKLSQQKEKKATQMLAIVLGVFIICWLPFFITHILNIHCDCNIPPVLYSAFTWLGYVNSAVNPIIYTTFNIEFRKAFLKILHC
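PathHunter beta-arrestin assay in DiscoveRx D2 cells. Compounds were added with an EC20 of dopamine (50 nM final) for 90 min at 37 deg C. Luminescence was read 1 h after detection reagent, with 57 uM dopamine as the EC100 control.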
Sfp PPTase inh: qHTS Assay for Inhibitors of Bacillus subtilis Sfp phosphopantetheinyl transferase (PPTase) | Potency, µM, inactives show max response, negative = inhibition, most hits filed as inhibitors | Biochemical Sfp PPTase activity, qHTS | 4'-phosphopantetheinyl transferase ffp (Bacillus subtilis), Q9F4F7 | 310,000 tested, 3.5% active | AID 1490, 2009; active = well fitted inhibition curve with a large enough effect; inconclusive = small, poorly fitted or top-dose-only effect, or another doubt; inactive = no such curve, though single readings can be large or run the other way;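 note: the enzyme is Sfp with the accession as filed and its product quenches rhodamine fluorescence; potency is the fitted concentration of half-maximal effect; 0% = enzyme reaction without inhibitor and -100% = no enzyme wells; top concentration of the series not given in the record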
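Step 1, compound plus 15 nM Sfp-PPTase, 15 min, room temperature. Step 2, add rhodamine-CoA (5 uM) and BHQ-2-YbbR (12.5 uM). Step 3, read 525/598 nm fluorescence at 0 and 30 min.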
TRPV1 potentiator: HTS Assay for Compounds that Act as Potentiators of the Vanilloid Receptor 1. 320,000 tested, 0.02% active. TRPV1-expressing cells, Fluo-8 calcium influx, capsaicin EC20 potentiation; host cell line not named in the record; control for the full effect not named in the record. potentiation, % at 8.33 µM. AID 540277, 2011. Transient receptor potential cation channel subfamily V member 1 (Homo sapiens), Q8NER1; active means potentiation above 80%; inconclusive means 30% to 80%; inactive means below 30%; note: 0% is about no effect
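TRPV1-expressing cells were cultured overnight at 35.5C and loaded with Fluo-8 calcium dye for 40 to 90 min at room temperature. After a 10 s baseline, compound was added and calcium influx was read kinetically for 3 min (ex 480/em 520 nm).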
CtBP-E1A blk: qHTS Assay for Inhibitors of the CtBP/E1A Interaction; AID 651724, 2012; AlphaScreen GST-E1A/His-CtBP binding, 1536-well; active compounds read low; control for the full effect not named in the record; activity change, % (test concentration not listed); 340,000 tested, 0.49% active; in the data active means activity change below about -65%; inconclusive means about -30% to -65%; inactive means above about -30%; note: % is set by controls: 0 for no effect and ±100 for the full control effect
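AlphaScreen with 125 nM GST-E1A and 125 nM His-CtBP (5X stocks) in Tris pH 8.0, 300 mM NaCl, BSA, Tween 20, TCEP. Compounds preincubated 2 h at 37 deg C, then glutathione donor/nickel acceptor beads added for 1 h at 37 deg C in dark.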
D2 ag: Beta-Arrestin HTS for Positive Allosteric Modulators of the Human D2 Dopamine Receptor: Agonists; D(2) dopamine receptor (Homo sapiens), P14416; DiscoveRx PathHunter D2 beta-arrestin, luminescence, 90 min; 100% = 57 uM dopamine signal; activation, % (test concentration not listed); 360,000 tested, 0.084% active; in the data active = activation above about 40%; inconclusive = about 15% to 40%; inactive = below about 15%; note: compound concentration not given in the record; the text of the record calls up to 30% inactive
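Agonist mode: compounds alone added to overnight-plated D2 PathHunter cells for 90 min at 37 C, with 57 uM final dopamine (EC100) defining full response. Beta-arrestin recruitment detected by chemiluminescent reagent, read after 1 h at ambient temperature.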
Six1-Eya2 inh: qHTS Assay for Inhibitors of the Six1/Eya2 Interaction; Homeobox protein SIX1 (Homo sapiens) + Protein phosphatase EYA2 (Homo sapiens), …; AlphaScreen GST-Six1/His-Eya2 binding, biochemical; active compounds read low; control for the full effect not named in the record; activity change, % (test concentration not listed); 360,000 tested, 0.56% active; in the data active = activity change below about -65%; inconclusive = about -30% to -65%; inactive = above about -30%; note: % is set by controls: 0 for no effect and ±100 for the full control effect
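AlphaScreen with GST-Six1 and His-Eya2 (5X mix: 250 nM and 500 nM), glutathione donor and nickel acceptor beads; buffer 50 mM Tris pH 8.0, 300 mM NaCl, 1 mM TCEP; 1 h at 37 C in the dark.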
The depositor's hits bear a star; ? = inconclusive; / = not tested or not shown; & = joins results of further samples; [ ] = dose if it differs, or a comment.

SMILES | PINK1 modulator | D2 potentiator | Sfp PPTase inh | TRPV1 potentiator | CtBP-E1A blk | D2 ag | Six1-Eya2 inh
CC(NC(=O)c1ccc(F)cc1F)C1CC2CCC1C2 (stereo not drawn) | -3.1% | -1 | -20% | -7 | -9 | 0.2 | 4
COc1ccccc1N1CCN(/N=C/c2ccccc2C(=O)O)CC1 | 12% | 3 | 0% | 6 | 7 | -3.4 | -8
CCOC(=O)CN1C(=O)S/C(=C/c2ccco2)C1=O | -1.2% | 1 | 28% | 7 | 5 | 5.4 | 1
C=CCOc1ccc(Br)cc1CNC(C)(C)C | -0.6% | -1 | 8% | 13 | 4 | -3.9 | -1
CCOc1cc(/C=C2/SC(=S)N(CC3CCCO3)C2=O)ccc1O (stereo not drawn) | -1.7% | -25 | 48%[activator] | 18 | / | -12 | -3
Cc1ccc(SCCC(=O)Nc2nccs2)cc1 | 4.3% | -4 | 4% | -2 | 5 | 2.4 | -11
NC(=O)CN1C(=O)C(=O)N(Cc2ccc(F)cc2)C1=O | 0.8% | -3 | 5% | -3 | 4 | -0.7 | 5
c1ccc(Oc2nc(-c3ccccn3)nc3ccccc23)cc1 | 16% | -8 | ? | -15 | -94* | -6.0 | -79*
COc1cc(CC(=O)NC(c2ccccc2)c2ccccc2)cc(OC)c1OC | -0.1% | 5 | 4% | 11 | 0 | -4.3 | -1
CC1(C)Cc2c(sc(NC(=O)c3ccc(C(=O)c4ccccc4)cc3)c2C(N)=O)C(C)(C)N1 | 4.3% | -19 | -28% | 0 | -11 | -12 | -9
CCN(C(=O)COC(=O)c1ccco1)c1c(N)n(Cc2ccccc2)c(=O)[nH]c1=O | 1.0% | 7 | / | 4 | -7 | -1.7 | -6
COc1ccc(CNC(=O)N2CCN(S(=O)(=O)c3ccccc3F)CC2)cc1 | -1.1% | 0 | 4% | -15 | 6 | -1.6 | 3
O=C(NCC1(N2CCCCC2)CCCCC1)c1ccc(NS(=O)(=O)c2ccccc2)cc1 | 3.0% | -17 | / | -17 | 0 | -2.7 | -1
O=Cc1cn(-c2ccccc2)nc1-c1ccccc1 | 6.1% | -3 | -1% | 5 | / | -0.4 | 0
S=C(NCCc1ccccc1)NCc1cccc(Cl)c1 | 26% | -8 | -1% | -24 | 4 | -2.3 | 6
CC(=O)Cn1c(CN2CCCCC2)nc2ccccc2c1=O | 1.0% | -4 | 5% | -2 | / | -4.4 | 2
CCOC(=O)c1oc2ccc(Cl)cc2c1NC(C)=O | 0.1% | -12 | 22% | 20 | / | 3.7 | 10
CCCn1c2ccccc2c2cnn(CC(=O)NC3CCC(C)CC3)c(=O)c21 (stereo not drawn) | 0.4% | -11 | 6% | -1 | 1 | -3.0 | 2
CCc1nnc(NS(=O)(=O)c2ccc(NCc3cc(Br)ccc3O)cc2)s1 | 0.1% | ? | 10% | 26 | -30 | 7.5 | -18
Cc1ccc(-n2c(SCC(=O)N3CCOCC3)nc(O)cc2=O)cc1 | 5.1% | -2 | 12% | 2 | -11 | -1.5 | -24
N/C(=N\N=C/c1ccc(Br)cc1)N/N=C\c1ccc(Br)cc1 | 2.1% | -14 | 3% | 3 | 0 | -2.4 | 0
Cc1cc2oc(C(=O)N3CCN(Cc4ccccc4)CC3)c(C)c2cc1C | 12% | -22 | / | / | -23 | -5.0 | ?
O=C(NCCc1cccc(C(F)(F)F)c1)C1CCC(=O)N(Cc2ccc(Cl)cc2)C1 (stereo not drawn) | 3.3% | -14 | 20% | -19 | 0 | 5.7 | 6
CCCCNC(=O)CSc1nc2ccccc2n1S(=O)(=O)c1ccc(Cl)cc1 | 1.3% | -15 | -6% | -11 | -4 | -6.3 | 3
CCN1C(=O)c2cccc3c(S(=O)(=O)N4CCNCC4)ccc1c23 | -0.3% | -5 | / | / | 0 | 13 | -15

3 entries out of the list above, sorted by the value under D2 potentiator, smallest number first.
smiles | D2 potentiator
O=C(NCCc1cccc(C(F)(F)F)c1)C1CCC(=O)N(Cc2ccc(Cl)cc2)C1 (stereo not drawn) | -14
CCOC(=O)c1oc2ccc(Cl)cc2c1NC(C)=O | -12
S=C(NCCc1ccccc1)NCc1cccc(Cl)c1 | -8

Next entries
SMILES | PINK1 modulator | D2 potentiator | Sfp PPTase inh | TRPV1 potentiator | CtBP-E1A blk | D2 ag | Six1-Eya2 inh
CCc1ccc(Oc2nc([N+](=O)[O-])nn2C)cc1 | 0.2% | -4 | 19% | -1 | -12 | -2.9 | 11
COc1ccc2nc(NC(=O)C3CC(=O)N(c4ccc5c(c4)OCCO5)C3)sc2c1 (stereo not drawn) | 3.6% | 1 | / | -13 | 5 | -0.9 | ?
Cc1nc2sc(C(c3ccco3)N3CCN(c4cccc(Cl)c4)CC3)c(O)n2n1 (stereo not drawn) | / | -9 | 2% | -28 | 5 | 3.9 | -14
COC(=O)c1cc(NC(=O)CC2SC(=Nc3ccccc3)N(CCc3c[nH]c4ccccc34)C2=O)cc(C(=O)OC)c1 (stereo not drawn) | 0.9% | -8 | 15% | 5 | -10 | -4.1 | -10
COc1ccc(C(=O)Nc2c(N)nc(SCC(=O)N3CCCCCC3)[nH]c2=O)cc1OC | 1.0% | -3 | 21% | -7 | 6 | -5.2 | 4
Cc1noc(C)c1COC(=O)CCc1nc2ccccc2s1 | -0.9% | -17 | 8% | -2 | 6 | -5.2 | 0
CCOc1ccc(S(=O)(=O)N2CCOCC2)cc1NC(=O)CN1C(=O)NC(C)(c2ccc(C)cc2)C1=O (stereo not drawn) | 3.3% | -20 | / | 6 | 0 | -0.9 | -1
CCOC(=O)Cc1cc(=O)n2[nH]c(C)c(-c3ccc(Cl)cc3)c2n1 | / | -1 | 14% | 14 | 12 | 2.2 | 3
CN1CCN(c2ccc(NC(=O)c3ccccc3Br)cc2)CC1 | -0.5% | -3 | 14% | 7 | 9 | -18 | 3
COc1cc2c(cc1O)[C@@H]1Cc3cc(OC)c(OC)cc3C(C2)N1C | -0.8% | -6 | 4% | ? | 4 | -2.1 | 2
C[C@@]12C(=O)Nc3cc(F)c(F)cc3C(=O)N1[C@H]1c3ccccc3OC[C@@H]1[C@@H]2c1ccccc1 | 2.2% | -34 | / | / | -4 | -3.1 | -11
O=C(/C=C/c1ccco1)NC(=S)Nc1cccc([N+](=O)[O-])c1 | 8.7% | -6 | 32µM* | 14 | -29 | -6.9 | ?
CCCc1c(C(=O)N/N=C/c2cccs2)nnn1-c1nonc1N | 8.3% | -2 | 17% | -13 | 2 | -11 | -1
O=C(COc1ccc(Br)cc1)OCc1nnc(-c2ccccc2)o1 | -0.7% | -1 | -11% | ? | 6 | -0.1 | 12
CSCCC(NC(=O)c1ccc([N+](=O)[O-])cc1Cl)C(=O)OCC(=O)C12CC3CC(CC(C3)C1)C2 (stereo not drawn) | -0.4% | -2 | 28% | -17 | / | 2.6 | -12
COc1ccc(OC)c(CCNC(=O)Cn2cccc2C(=O)c2ccccc2C)c1 | 1.2% | -23 | 3% | -14 | 8 | 0.1 | -13
COCC1CCN(C(=O)C2CCC(=O)N(Cc3cccc(C(F)(F)F)c3)C2)CC1 (stereo not drawn) | -0.1% | 1 | 9% | -20 | 2 | -6.5 | 5
O=S(=O)(Oc1ccc(Cl)cc1)c1cccc2cccnc12 | 0.2% | -5 | 4% | -3 | -2 | -3.6 | -13
Cc1ccc(/C=C2/Sc3ccccc3N(CC(=O)NCCCOC(C)C)C2=O)cc1 | 3.6% | 0 | 21% | 2 | -2 | 0.7 | 3
c1ccc(-n2nnc(-c3nccs3)n2)cc1 | 0.1% | -9 | / | / | -8 | -4.8 | -1
Cc1n[nH]c(C)c1S(=O)(=O)N1CCCC(C(=O)NCC2COc3ccccc3O2)C1 (stereo not drawn) | 3.3% | -17 | 3% | 2 | 9 | -1.5 | 4
CCO[C@H]1OC(C(=O)NCc2ccccc2)=C[C@@H](c2ccc(C(F)(F)F)cc2)[C@@H]1CCCO | -1.1% | -9 | 19% | -6 | 4 | -0.1 | 2
COc1ccc2oc(C(=O)Nc3nc4ccc(S(C)(=O)=O)cc4s3)c(C)c2c1 | 7.8% | 16 | / | 2 | -18 | 0.1 | 10
CCCc1cc(=O)oc2c(C)c3occ(C)c3cc12 | -2.3% | -13 | -1% | -10 | 0 | -1.3 | 20
CN1C(=O)Cc2cc(S(=O)(=O)N3CCN(c4cccc(C(F)(F)F)c4)CC3)ccc21 | 5.8%&6.9% | -3 | 13% | -13 | -1 | 1.8 | 0
(more compounds)
SMILES | PINK1 modulator | D2 potentiator | Sfp PPTase inh | TRPV1 potentiator | CtBP-E1A blk | D2 ag | Six1-Eya2 inh
O=C(N1CCCCC1)N1CCN(C(=O)N(c2ccccc2)c2ccccc2)CC1 | / | -13 | 13% | -4 | 9 | 0.1 | 2
O=S(=O)(Nc1ccc(N2CCCCC2)cc1)c1ccccc1F | 1.2% | -9 | 0% | -5 | -24 | 0.6 | -18
COC1=C(N2CCOCC2)C(=O)c2ccccc2C1=O | -0.2% | -25 | -23% | ? | 2 | -0.8 | 2
O=C(CCc1ccccc1)NC(=S)Nc1ccc2c(c1)C(=O)OC2 | 5.8% | -7 | 25% | 15 | / | 8.3 | 2
O=S(=O)(Cc1nnnn1-c1ccc(Br)cc1)c1ccc(F)cc1 | 1.5% | -12 | 6% | -10 | -3 | -4.6 | 1
O=C(Cc1cccc(C(F)(F)F)c1)NCc1ccc(Cl)cc1 | 5.7% | -7 | 0% | -20 | 18 | -5.4 | 11
COCOCCn1cc(CN2CCS(=O)(=O)N(Cc3ccc(-c4ccc(Cl)cc4)cc3)C(CC(C)C)C2=O)nn1 (stereo not drawn) | 12% | -5 | / | / | -2 | -9.7 | 0
CCCCC1C(=O)N(c2ccccc2)N(c2ccc(O)cc2)C1=O (stereo not drawn) | 1.0% | -22 | -22% | -6 | 1 | -5.9 | -2
